From PubChem BioAssay
RanGTP-Imp inh – inhibitors of RanGTP-importin-beta interaction, primary screen, biochemical, FRET, CFP-Ran, YFP-importin-beta, homogeneous | inhibition, % (no concentration beside the values) | hit rate 1.1% among 300,000 | cell-free CFP-Ran/YFP-importin-beta FRET ratio;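 active = most replicates above 15%; inconclusive = exactly half above 15%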;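 also: 0% = DMSO wells and 100% = Ran loaded with GDP instead of GTP; wells of about 40 µL received 100 nL stock; the first replicate is given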
AF4-AF9 inh – inhibitors of human MLL-AF4/AF9 interaction; AlphaScreen, biotin-AF4 peptide binding to FLAG-AF9; inhibition, % at 10 µM; hit rate 0.47% among 350,000;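 active = every replicate reaching a set inhibition limit, whatever the replicate mean, cut at about 25% in these data; inconclusive = mean inhibition reaches that limit but some replicates miss it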;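 also: 0% = plate neutral control median and 100% = total signal loss; the record names both 10 and 1 µM as test concentration; the first replicate is given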
Target sequence (P42568 whole entry, looked up): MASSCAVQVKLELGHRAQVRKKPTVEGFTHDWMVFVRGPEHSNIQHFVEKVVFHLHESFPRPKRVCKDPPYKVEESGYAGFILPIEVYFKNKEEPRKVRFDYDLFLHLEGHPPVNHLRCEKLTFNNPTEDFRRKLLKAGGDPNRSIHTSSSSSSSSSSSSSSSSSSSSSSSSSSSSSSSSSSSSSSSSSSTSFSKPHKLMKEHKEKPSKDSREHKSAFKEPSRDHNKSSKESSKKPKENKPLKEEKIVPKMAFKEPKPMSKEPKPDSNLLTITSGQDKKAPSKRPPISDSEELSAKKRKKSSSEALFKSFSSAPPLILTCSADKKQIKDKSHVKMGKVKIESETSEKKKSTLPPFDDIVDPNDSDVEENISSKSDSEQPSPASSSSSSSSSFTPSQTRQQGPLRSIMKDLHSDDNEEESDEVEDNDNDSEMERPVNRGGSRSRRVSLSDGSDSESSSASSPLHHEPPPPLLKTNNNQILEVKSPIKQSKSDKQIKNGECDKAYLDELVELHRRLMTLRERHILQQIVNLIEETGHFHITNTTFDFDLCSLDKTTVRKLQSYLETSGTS
Bfl-1 A1 inh – inhibitors of the anti-apoptotic protein A1, read as caspase activation; MEF A1-2A-BIM cells, Caspase-Glo 3/7 luminescence, 3 h; percent of clofoctol response, vehicle zero; caspase activation, % (no concentration beside the values); hit rate 0.066% among 330,000;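 active = over half of replicate activation scores above 10%, or exactly half above 10 with the replicate mean above 10; inconclusive = replicate mean below 10 yet half the replicates above 10; inactive = over half of replicates below 10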;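 also: wells of about 30 µL received 50 nL stock; many hits fall short of the cut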
T cruzi repl – blocks replication of Trypanosoma cruzi | inhibition, % (test concentration not listed) | AID 1885 | hit rate 1.4% among 300,000 | T. cruzi beta-gal in NIH3T3, luminescence, 90 h;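 active = mean inhibition across valid replicates above about 55%, limit read from the data; inconclusive = mean below that limit but half or more replicates reach it; inactive = mean below it, under half of replicates reach it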;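 also: signal also drops with host cell toxicity which is not excluded here; 0% = plate median of DMSO wells and 100% = zero luminescence signal; higher percent means less beta-gal luminescence so fewer parasites; stock transfer was 50 nL into about 50 µL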
Ecoli rRNA inh – selective bacterial rRNA inhibition in E. coli; E. coli WT GFP vs humanized-ribosome RFP mutants, fluorescence, 24 h; hits give low values; DMSO median 0, no signal -100; GFP signal change (wild-type ribosome), % (test concentration not listed); hit rate 1.6% among 350,000; AID 720706;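 active = significant combined selectivity score with lowered wild-type GFP, culture density cut under 30%, mutant RFP and density less affected; inactive = any of these conditions unmet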; also: one replicate is shown; some compounds called inactive have numbers as strong as hits
Vif A3G – HIV-1 Vif–A3G interaction blockers – biochemical, TR-FRET, GST-Vif 1-94, biotin-A3G peptide, dose response retest, primary screen (AID 1117319). TR-FRET GST-Vif / biotin-A3G peptide binding; higher % means a stronger effect; test concentration not given here; strong numbers were not always called active. one-dose inhibition, %; IC50 in µM for titrated hits. hit rate 0.57% among 260,000;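 active = above the screen mean plus three standard deviations and confirmed in dose response; inconclusive = results disagree or hit not tested in dose response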;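 also: Vif residues 1-94 fused to GST binding biotinylated APOBEC3G peptide 110-148; 0% = full assay without inhibitor and 100% = GST in place of GST-Vif; retest series ran down from 100 µM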
Beta cell apopt – blocks beta cell apoptosis; INS-1E cytokine-induced death, ATP luminescence, 48 h; percent of positive-control rescue, neutral wells zero; hit rate 0.8% among 300,000; AID 435005; protection from apoptosis, % (no concentration beside the values);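 active = all replicates at 75% or more, or half of them and the mean; inconclusive = half reach 75% but not the mean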;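 also: 0% = cytokine-treated negative control wells and 100% = positive control rescue; higher means more ATP so stronger rescue from cytokine killing; wells of about 40 µL received 100 nL stock; the first replicate is given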
Calb FLC – affects C. albicans growth with fluconazole. hit rate 0.57% among 300,000. C. albicans CaCi-2 (fluconazole-resistant clinical isolate) + fluconazole, Alamar Blue growth, 48 h. growth inhibition, % (concentration not given with the values);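 active = most replicates above 75%; inconclusive = exactly half above 75%; inactive = most below 75%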;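 also: all wells also contain fluconazole at 8 µg/ml as a sub-toxic cotreatment; 0% = median of DMSO wells and 100% = median of geldanamycin control wells; wells of about 8 µL received 7.5 nL stock; the first replicate is given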
Ecoli rRNA inh OD600 – second read-out of Ecoli rRNA inh, no call of its own (marks repeat the call); OD600 change, %; measured here: OD600 growth;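 optical density of the mix in the first replicate; 0 = DMSO median and -100 = no signal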
Ecoli rRNA inh RFP – further read-out of Ecoli rRNA inh, marked with its call; RFP signal change, %; measured here: RFP humanized mutant strains;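 first replicate; 0 = DMSO median and -100 = no signal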
Active calls of the source: *. The list is partial; count on the stated rates, not on these rows.

COC(=O)COc1ccc(Oc2nc(SC)nc(N(C)C)n2)nn1 was read as RanGTP-Imp inh inconclusive, Bfl-1 A1 inh -0.5, T cruzi repl -1, Vif A3G 1%, Beta cell apopt -10 and Calb FLC 1.
CCCCCC(=O)Nc1ccccc1N1CCOCC1 was read as RanGTP-Imp inh 1.0, Bfl-1 A1 inh 1.7, T cruzi repl -11, Vif A3G 4%, Beta cell apopt -7 and Calb FLC -6.
`O=C1OCCC1Sc1nc2ccccc2c(=O)n1-c1ccc(F)cc1` (stereo not given) gave RanGTP-Imp inh 4.5, AF4-AF9 inh -1.2, Bfl-1 A1 inh 0.4, T cruzi repl -6, Ecoli rRNA inh 20, Vif A3G -7%, Beta cell apopt -4, Calb FLC -5, Ecoli rRNA inh OD600 22 and Ecoli rRNA inh RFP -0.5.
Screening COc1ccc(NC2CCCN(C(=O)c3ccc4nccnc4c3)C2)cc1OC (stereo not given) returned RanGTP-Imp inh 0.1, AF4-AF9 inh -2.4, Bfl-1 A1 inh -0.3, T cruzi repl 4, Ecoli rRNA inh 2, Beta cell apopt 4, Calb FLC -2, Ecoli rRNA inh OD600 12 and Ecoli rRNA inh RFP -2.0.
`O=C(NCc1ccccc1F)C1CCCN(C(=O)Nc2ccc(F)cc2)C1` (stereo not given) gave RanGTP-Imp inh 2.4, AF4-AF9 inh -7.7, Bfl-1 A1 inh -0.2, T cruzi repl -1, Ecoli rRNA inh -1, Beta cell apopt 4, Calb FLC 6, Ecoli rRNA inh OD600 4 and Ecoli rRNA inh RFP 0.1.
`COc1cc(NC(=O)c2cc([N+](=O)[O-])ccc2NC(=O)CN2CCN(c3ccccn3)CC2)cc(OC)c1` gave RanGTP-Imp inh 6.3, AF4-AF9 inh 4.3, Bfl-1 A1 inh -0.2, T cruzi repl 21, Ecoli rRNA inh 4, Beta cell apopt 35, Calb FLC inconclusive, Ecoli rRNA inh OD600 6 and Ecoli rRNA inh RFP 2.0.
Screening O=C1/C(=C/c2ccccc2F)SC(=S)N1CCC(=O)N1CCCCC1CCO (stereo not given) returned RanGTP-Imp inh 2.4, AF4-AF9 inh 7.1, Bfl-1 A1 inh -0.5, T cruzi repl -1, Ecoli rRNA inh -23*, Calb FLC 1, Ecoli rRNA inh OD600 -13* and Ecoli rRNA inh RFP 5.1*.
Screening COc1ccc(/C=N/NC(=O)c2ccc(COc3ccccc3Cl)o2)c(OC)c1C returned RanGTP-Imp inh 2.4, Bfl-1 A1 inh 2.5, T cruzi repl -10, Vif A3G 1%, Beta cell apopt 12 and Calb FLC 22.
For O=S(=O)(N/N=C1\CC(c2ccccc2)Oc2ccccc21)c1ccccc1 (stereo not given) the results were RanGTP-Imp inh 7.7, Bfl-1 A1 inh 1.4, T cruzi repl -12, Vif A3G -3%, Beta cell apopt -5 and Calb FLC -2.
Screening CCN(Cc1ccncc1)C(=O)C(CO)c1ccccc1 (stereo not given) returned RanGTP-Imp inh 0.2, AF4-AF9 inh -0.2, Bfl-1 A1 inh 1.0, T cruzi repl 2 and Beta cell apopt 4.
CC(=O)c1nn(-c2cccc(Br)c2)cc1C(=O)c1ccco1 was read as RanGTP-Imp inh 0.9, Bfl-1 A1 inh 0.3, T cruzi repl 14, Beta cell apopt -4 and Calb FLC 3.
For COc1ccccc1C(=O)N/C(=C\c1ccc2c(c1)OCO2)C(=O)NCCc1nc2ccccc2[nH]1 the results were RanGTP-Imp inh -3.4, AF4-AF9 inh -0.5, Bfl-1 A1 inh 0.6, T cruzi repl 13, Ecoli rRNA inh 8, Beta cell apopt 8, Calb FLC 2, Ecoli rRNA inh OD600 20 and Ecoli rRNA inh RFP 5.4.
O=C(Cn1c(=O)cnc2ccccc21)Nc1ccccc1N1CCOCC1 was read as RanGTP-Imp inh 8.7, AF4-AF9 inh -0.4, Bfl-1 A1 inh -0.7, T cruzi repl -17, Ecoli rRNA inh 5, Vif A3G 8%, Beta cell apopt -5, Calb FLC 10, Ecoli rRNA inh OD600 8 and Ecoli rRNA inh RFP 0.4.
`CCOC(=O)C1CCCN(c2c(NCCc3ccc(C)cc3)c(=O)c2=O)C1` (stereo not given) gave RanGTP-Imp inh -0.9, AF4-AF9 inh 2.5, Bfl-1 A1 inh 0.3, T cruzi repl -5, Ecoli rRNA inh 9, Vif A3G 2%, Beta cell apopt -6, Calb FLC -8, Ecoli rRNA inh OD600 11 and Ecoli rRNA inh RFP 5.5.
`CCOC(=O)c1[nH]ncc1[C@@H]1C[C@H]2CN(Cc3cccc(Cl)c3)C(=O)[C@]23CCCN13` gave RanGTP-Imp inh -4.3, AF4-AF9 inh 7.3, Bfl-1 A1 inh 0.5, T cruzi repl -6, Ecoli rRNA inh 9, Vif A3G 8%, Beta cell apopt -2, Calb FLC -3, Ecoli rRNA inh OD600 4 and Ecoli rRNA inh RFP 1.5.
COc1ccc(NC(=O)COC(=O)c2ccc3c(c2)OCO3)c(OC)c1 was read as AF4-AF9 inh -6.4, Bfl-1 A1 inh -0.5, Ecoli rRNA inh 11, Vif A3G -10%, Beta cell apopt -5, Ecoli rRNA inh OD600 1 and Ecoli rRNA inh RFP 0.3.
CSCCC(NS(=O)(=O)c1ccc(C)c(C(=O)O)c1)C(=O)O (stereo not given) was read as RanGTP-Imp inh 4.2, AF4-AF9 inh -2.0, Bfl-1 A1 inh 1.0, T cruzi repl -3, Ecoli rRNA inh 29, Vif A3G 9%, Beta cell apopt -7, Calb FLC 2, Ecoli rRNA inh OD600 26 and Ecoli rRNA inh RFP 1.6.
N/C(=N\OC(=O)c1ccc([N+](=O)[O-])cc1)c1ccc(Br)cc1 was read as RanGTP-Imp inh -1.5, AF4-AF9 inh -5.0, Bfl-1 A1 inh -0.3, T cruzi repl 5, Ecoli rRNA inh 10, Beta cell apopt 0, Calb FLC 4, Ecoli rRNA inh OD600 18 and Ecoli rRNA inh RFP -1.8.
`Cc1sc2c(c1C)c(=O)n(-c1cccc(C(F)(F)F)c1)c(=O)n2CC(=O)NCc1ccco1` gave RanGTP-Imp inh -2.0, Bfl-1 A1 inh -0.6, T cruzi repl -2, Vif A3G 7%, Beta cell apopt 0 and Calb FLC -14.
Screening CCN1CCN(c2nc(C)c3c(n2)CCCC3=O)CC1 returned RanGTP-Imp inh -1.0, Bfl-1 A1 inh -0.2, T cruzi repl 9, Vif A3G 0%, Beta cell apopt -15 and Calb FLC 1.
COCCCNc1nc2ccccc2nc1NS(=O)(=O)c1ccc(F)cc1 was read as RanGTP-Imp inh -0.3, AF4-AF9 inh 2.3, Bfl-1 A1 inh 0.9, T cruzi repl -1, Ecoli rRNA inh -3, Vif A3G 1%, Calb FLC 7, Ecoli rRNA inh OD600 -5 and Ecoli rRNA inh RFP 0.6.
For C=CC[C@@H](Cc1ccc(F)cc1)C(=O)OC[C@H]1CCCN1C(=O)[C@@H](CC=C)CC(=O)N[C@H](CO)Cc1ccccc1 the results were AF4-AF9 inh 3.4, Bfl-1 A1 inh 0.9, Ecoli rRNA inh -27, Beta cell apopt -3, Ecoli rRNA inh OD600 -43 and Ecoli rRNA inh RFP 33.
Screening COc1ccc(N2CCN(C(=O)NCc3ccc(OC)c(Cl)c3)CC2)cc1 returned RanGTP-Imp inh 5.9, AF4-AF9 inh -1.3, Bfl-1 A1 inh -0.4, T cruzi repl 6, Ecoli rRNA inh 8, Beta cell apopt 3, Calb FLC -7, Ecoli rRNA inh OD600 10 and Ecoli rRNA inh RFP -0.5.
CC1CCN(C(=O)COC(=O)C(C)N2C(=O)c3ccccc3C2=O)CC1 (stereo not given) was read as AF4-AF9 inh -3.6, Bfl-1 A1 inh 1.0, Ecoli rRNA inh 17, Vif A3G -6%, Beta cell apopt -6, Ecoli rRNA inh OD600 12 and Ecoli rRNA inh RFP 1.1.
`COc1ccc(Cn2c(=O)cc(N)n(-c3ccccc3C)c2=O)cc1` gave RanGTP-Imp inh -1.9, AF4-AF9 inh -2.1, Bfl-1 A1 inh -0.4, T cruzi repl 14, Ecoli rRNA inh 4, Beta cell apopt -1, Calb FLC -3, Ecoli rRNA inh OD600 5 and Ecoli rRNA inh RFP -0.6.
For CCCS(=O)(=O)Nc1cccc(-c2ccc3nnc(C)n3n2)c1 the results were RanGTP-Imp inh 4.5, AF4-AF9 inh -4.3, Bfl-1 A1 inh 0.8, T cruzi repl -5, Ecoli rRNA inh 14, Vif A3G -3%, Beta cell apopt 0, Calb FLC 3, Ecoli rRNA inh OD600 9 and Ecoli rRNA inh RFP 4.3.
For Cc1ccc(C(=O)OCC(=O)N(C)C2CCS(=O)(=O)C2)cc1[N+](=O)[O-] (stereo not given) the results were AF4-AF9 inh -0.8, Bfl-1 A1 inh 1.2, T cruzi repl -12, Ecoli rRNA inh 6, Vif A3G 2%, Beta cell apopt 4, Calb FLC -6, Ecoli rRNA inh OD600 1 and Ecoli rRNA inh RFP 0.0.
`O=C(Cn1cnc2c(nnn2Cc2ccc(F)cc2)c1=O)OCc1ccccc1` gave RanGTP-Imp inh 0.9, AF4-AF9 inh -1.6, Bfl-1 A1 inh 0.1, T cruzi repl 19, Ecoli rRNA inh -7, Vif A3G 5%, Beta cell apopt 0, Calb FLC -9, Ecoli rRNA inh OD600 -2 and Ecoli rRNA inh RFP 2.9.
Screening COCCCN(C(=S)Nc1c(C)cc(C)cc1C)C(C)c1ccncc1 (stereo not given) returned RanGTP-Imp inh -6.0, Bfl-1 A1 inh 0.7, T cruzi repl -17, Vif A3G 0%, Beta cell apopt -6 and Calb FLC 0.
CCCN(CC(=O)Nc1cc(Cl)ccc1Cl)C(=O)c1ccc2n[nH]nc2c1 was read as AF4-AF9 inh 2.2, Bfl-1 A1 inh 0.8, Ecoli rRNA inh -4, Beta cell apopt -5, Ecoli rRNA inh OD600 -6 and Ecoli rRNA inh RFP -0.4.
CCC(C(=O)OC(C)C)c1ccc2ccccc2c1 (stereo not given) was read as AF4-AF9 inh -1.8, Bfl-1 A1 inh 1.5, Ecoli rRNA inh 9, Beta cell apopt 3, Ecoli rRNA inh OD600 4 and Ecoli rRNA inh RFP 2.7.
CN(C)S(=O)(=O)c1ccc(C(=O)Nc2nc3ccccc3[nH]2)cc1 was read as RanGTP-Imp inh -4.0, AF4-AF9 inh -0.7, Bfl-1 A1 inh -2.4, T cruzi repl -1, Ecoli rRNA inh 15, Vif A3G -5%, Beta cell apopt 2, Calb FLC -2, Ecoli rRNA inh OD600 12 and Ecoli rRNA inh RFP 2.2.
Screening COc1ccc(-c2cc(C(=O)NCCCN3CCCC3=O)c3ccccc3n2)cc1 returned RanGTP-Imp inh -10, AF4-AF9 inh -9.2, Bfl-1 A1 inh 0.8, T cruzi repl -3, Ecoli rRNA inh -2, Beta cell apopt -5, Calb FLC -4, Ecoli rRNA inh OD600 5 and Ecoli rRNA inh RFP -2.4.
